Autofluor counter: flagged as autofluorescent in microsphere protease counterscreen; compound autofluorescence counterscreen, microsphere flow cytometry; active compounds read high; fluorescence intensity (no concentration beside the values); hit rate 3.1% among 360,000;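 active = at least 3 SD above the mean of all compounds, about 16000 in these data; inconclusive = too few beads counted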;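 note: 100 nL of 1 mM stock went into each well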
PrP UTR inh: inhibition of PrP 5' UTR reporter expression; hit rate 0.35% among 340,000; cell-based PrP 5' UTR mRNA reporter, plate reader; inhibition, % (test concentration not listed);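 active = every replicate at 50% or more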;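 note: 0 = median of the neutral control wells; tested in H4 reporter cells; numbers are from one replicate; inactives centre near -14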
Sa ugtP lethal: growth inhibition of ugtP-null S. aureus, primary screen, RN4220 ugtP deletion, OD600 | 16 h; some inactives read as strong as hits | growth inhibition, % (no concentration beside the values) | hit rate 0.54% among 330,000;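 active = z-score under -3 and OD600 up to 0.15 on both plates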;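 note: plate controls were untreated wells for no effect and antibiotic for full effect; wells of about 80 µL received 100 nL stock; the first replicate is given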
BJeLR lethal: MLPCN primary cell-based screen for lethality selective to Ras in HRASV12 cells; hit rate 0.17% among 300,000; inhibition, % (test concentration not listed); BJeLR (HRASV12) viability, CellTiter-Glo ATP luminescence, 48 h; reference of the scale not given here;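 active = replicate mean above 50%; inconclusive = above 50% but judged a plate artefact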;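 note: 50 nL library stock added to about 25 µL; numbers are from one replicate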
Sa RN4220 lethal: growth inhibition of S. aureus RN4220, primary screen, OD600. inhibition, % (no concentration beside the values). hit rate 0.33% among 330,000. 16 h;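 active = z-score of -3 or lower and OD600 up to 0.18 on both plates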;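 note: plate controls were untreated cells for no effect and reference antibiotic for full effect; stock transfer was 100 nL into about 80 µL; one replicate is shown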
Mtb hypoxia rep: PubChem AID 1159583. M. tuberculosis hypoxia-regulated fluorescent reporter, fluorescence. fluorescence inhibition, % (concentration not given with the values). hit rate 0.1% among 300,000;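 active = 35 to 45% if threefold the growth effect, above 45% if 1.5-fold the growth effect; inactive = the rest, general growth blockers included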;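 note: wells of about 50 µL received 100 nL stock; 0% = vehicle wells and 100% = reference inhibitor wells; whole bacteria with a GFP reporter of the hypoxia response; strong numbers were not always called active; many hits fall short of the cut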
Mtb hypoxia rep growth: also measured in Mtb hypoxia rep; calls as there; growth inhibition, %; measured here: M. tuberculosis growth (absorbance);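 0% = vehicle and 100% = reference antibiotic; read after six days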
* hit, by the source's call; ? = inconclusive; . = no result given.

Key to letters: A = Autofluor counter; B = PrP UTR inh; C = Sa ugtP lethal; D = BJeLR lethal; E = Sa RN4220 lethal; F = Mtb hypoxia rep; G = Mtb hypoxia rep growth
Structure: CCn1cc(CN2CCC(n3nccc3NC(=O)CCOc3ccccc3)CC2)c(C)n1
  A: 4455 | B: -6 | C: . | D: -3 | E: . | F: . | G: .

Structure: O=C(CSc1nnnn1-c1ccc(F)cc1)NC1CCCCC1
  A: 3659 | B: -17 | C: 3 | D: 4 | E: 0.5 | F: 11 | G: 2

Structure: CCCN1CCN(CCCNC(=O)c2ccc(CS(=O)c3ccccc3C)o2)CC1 (stereo not given)
  A: 4777 | B: -7 | C: 6 | D: -1 | E: 2.2 | F: 9 | G: 3

Structure: N#C/C(=C(/O)COC(=O)c1ccccc1O)c1nc2ccccc2s1
  A: 4849 | B: 1 | C: . | D: 2 | E: . | F: . | G: .

Structure: O=C(c1ccc(=O)[nH]n1)N1CCN(S(=O)(=O)c2ccccc2F)CC1
  A: ? | B: -31 | C: 4 | D: . | E: 1.4 | F: 3 | G: 0

Structure: O=C(/C=C/c1ccccc1)Nn1cnnc1
  A: 5988 | B: -22 | C: -13 | D: -7 | E: 7.2 | F: 2 | G: 9

Structure: Cc1ccc(N(C(=O)c2ccc3c(c2)OCO3)C2C=CS(=O)(=O)C2)cc1C (stereo not given)
  A: 5318 | B: -17 | C: 0 | D: -14 | E: 2.3 | F: 6 | G: 8

Structure: O=C(CCc1ccccc1)Nc1ccc(NC(=O)C2CCCCC2)nc1
  A: 2473 | B: -7 | C: 21 | D: 0 | E: -9.0 | F: 0 | G: -1

Structure: COc1ccc(NC(=O)CSCC(=O)N(C)Cc2c(F)cccc2Cl)cc1
  A: 4821 | B: -32 | C: -2 | D: -1 | E: -1.5 | F: -9 | G: 3

Structure: CC(C)OCCCNC(=O)c1ccc2c(c1)ncn2C1CCCC1
  A: 4356 | B: -8 | C: 12 | D: -2 | E: 1.4 | F: 9 | G: 5

Structure: CCSCc1nnc(SCC(=O)Nc2nccs2)n1CC
  A: 4042 | B: -16 | C: 4 | D: -11 | E: 4.1 | F: -7 | G: -7

Structure: Cc1cc(C)nc(NC(=O)c2ccc(OC(C)C)cc2)n1
  A: 2521 | B: -2 | C: 12 | D: -7 | E: 5.9 | F: . | G: .

Structure: O=C(CC(=O)NN=Cc1ccc(F)cc1)NCCc1ccccc1
  A: . | B: . | C: 9 | D: . | E: 3.8 | F: 7 | G: 5

Structure: Cc1ccc(S(=O)(=O)CCC(=O)NCCC2=CCCCC2)cc1
  A: 6015 | B: -16 | C: -5 | D: -7 | E: 2.1 | F: 0 | G: 1

Structure: O=C(CSc1nnc(-c2ccncc2)o1)Nc1cccc(Cl)c1
  A: 3813 | B: -37 | C: -2 | D: . | E: -2.5 | F: 8 | G: 7

Next part
Key to letters: A = Autofluor counter; B = PrP UTR inh; C = Sa ugtP lethal; D = BJeLR lethal; E = Sa RN4220 lethal; F = Mtb hypoxia rep; G = Mtb hypoxia rep growth
Structure: COc1ccc(NC(=O)CSc2nc3ccccc3c3nc4ccccc4n23)cc1
  A: 2453 | B: 9 | C: 3 | D: . | E: 4.1 | F: 7 | G: 2

Structure: CCn1cc(C(=O)NCC(=O)NCCCN2CCOCC2)c(=O)c2cc3c(cc21)OCO3
  A: 6157 | B: -9 | C: 6 | D: 1 | E: 1.6 | F: -1 | G: 2

Structure: COc1cccc(NC(=S)N2CCN(Cc3ccccc3)CC2)c1
  A: 2435 | B: -22 | C: 4 | D: 0 | E: 2.2 | F: 14 | G: 9

Structure: Cc1cc(COC(=O)C2N3C(=O)C(NC(=O)COc4ccccc4)C3SC2(C)C)on1 (stereo not given)
  A: . | B: . | C: 100* | D: . | E: 100* | F: 6 | G: 10

Structure: O=C(CCCNC(=O)c1ccc(Cl)cc1)NCc1ccccc1Cl
  A: 3000 | B: -10 | C: 14 | D: -6 | E: 2.0 | F: -1 | G: -10

Structure: Cc1nc2ncnn2c(C)c1CCC(=O)NC(C)CCc1ccco1 (stereo not given)
  A: 9007 | B: -13 | C: -1 | D: -6 | E: 0.2 | F: 11 | G: -1

Structure: Cc1ccc(-c2csc(NC(=O)COc3ccc(N(C)S(=O)(=O)c4ccc(C)cc4)cc3)n2)cc1
  A: 2663 | B: -16 | C: 13 | D: -16 | E: -0.5 | F: 4 | G: 5

Structure: O=C(Cc1cccc(NC(=O)C2CCN(C(=O)C3CC3)CC2)c1)Nc1cccc(C(=O)N2CCCC2)c1
  A: 2987 | B: -17 | C: 4 | D: . | E: -5.4 | F: 2 | G: -3

Structure: CCN(CC(=O)Nc1ccc(NC(C)=O)cc1)C(=O)/C=C/c1ccc([N+](=O)[O-])cc1
  A: ? | B: -25 | C: 0 | D: 3 | E: 1.5 | F: -7 | G: 1

Structure: c1ccc2[nH]c(-c3ccc4c(c3)OCO4)nc2c1
  A: 4125 | B: . | C: 0 | D: 29 | E: -1.0 | F: 3 | G: 19

Structure: CCCn1c(SCC(=O)NCCc2ccccc2)nnc1-c1ccccn1
  A: 4741 | B: -1 | C: -3 | D: -4 | E: -1.5 | F: . | G: .

Structure: Cc1cnc(NC(=O)c2cc3c(C)nn(-c4ccccc4)c3s2)s1
  A: 8269 | B: 0 | C: -3 | D: 5 | E: 9.4 | F: 3 | G: -7

Structure: CCC1(c2ccccc2)NC(=O)N(CC(=O)N(C)Cc2c(F)cccc2Cl)C1=O (stereo not given)
  A: 4394 | B: -20 | C: 2 | D: -3 | E: 1.6 | F: 13 | G: 7

Structure: C[C@H](NC(=O)c1ccccc1Cl)C(=O)OC(C(=O)Nc1cc(C(F)(F)F)ccc1Cl)c1ccccc1 (stereo not given in full)
  A: 2808 | B: 0 | C: 20 | D: 3 | E: -2.0 | F: . | G: .

Structure: O=C(CCC(=O)c1cccs1)NNC(=O)c1ccc(Cl)cc1
  A: 3591 | B: -24 | C: 9 | D: . | E: 5.7 | F: 6 | G: 4

Next section.
Key to letters: A = Autofluor counter; B = PrP UTR inh; C = Sa ugtP lethal; D = BJeLR lethal; E = Sa RN4220 lethal; F = Mtb hypoxia rep; G = Mtb hypoxia rep growth
Structure: CC[n+]1ccc(C=C2Sc3ccccc3N2CCCS(=O)(=O)[O-])c2ccccc21
  A: . | B: . | C: -1 | D: . | E: 5.3 | F: 15 | G: 4

Structure: O=C(NCCO)C1CCN(S(=O)(=O)c2ccc(F)cc2)CC1
  A: 4259 | B: -8 | C: 9 | D: -3 | E: -0.6 | F: 5 | G: -4

Structure: O=C(CCl)N(CCc1ccccc1)CCc1ccccc1
  A: 4640 | B: -7 | C: . | D: 12 | E: . | F: . | G: .

Structure: COc1cc(/C=C2\SC(=O)NC2=O)ccc1Oc1cnccn1
  A: 2000 | B: -14 | C: 6 | D: -5 | E: 3.0 | F: 6 | G: 10

Structure: O=C(O)CSc1nnc(-c2ccc(Cl)cc2Cl)n1-c1ccc(Cl)cc1
  A: 3970 | B: -19 | C: . | D: -3 | E: . | F: . | G: .

Structure: O=C1c2ccccc2NC(c2ccccc2)N1CCCN1CCOCC1 (stereo not given)
  A: 6351 | B: -16 | C: 11 | D: -6 | E: 1.6 | F: 16 | G: 9

Quoted from the results shown (10 entries):
Key to letters: A = Autofluor counter; B = PrP UTR inh; C = Sa ugtP lethal; D = BJeLR lethal; E = Sa RN4220 lethal; F = Mtb hypoxia rep; G = Mtb hypoxia rep growth
Structure: CCCN1CCN(CCCNC(=O)c2ccc(CS(=O)c3ccccc3C)o2)CC1 (stereo not given)
  A: 4777 | B: -7 | C: 6 | D: -1 | E: 2.2 | F: 9 | G: 3

Structure: N#C/C(=C(/O)COC(=O)c1ccccc1O)c1nc2ccccc2s1
  A: 4849 | B: 1 | C: . | D: 2 | E: . | F: . | G: .

Structure: O=C(c1ccc(=O)[nH]n1)N1CCN(S(=O)(=O)c2ccccc2F)CC1
  A: ? | B: -31 | C: 4 | D: . | E: 1.4 | F: 3 | G: 0

Structure: O=C(/C=C/c1ccccc1)Nn1cnnc1
  A: 5988 | B: -22 | C: -13 | D: -7 | E: 7.2 | F: 2 | G: 9

Structure: Cc1ccc(N(C(=O)c2ccc3c(c2)OCO3)C2C=CS(=O)(=O)C2)cc1C (stereo not given)
  A: 5318 | B: -17 | C: 0 | D: -14 | E: 2.3 | F: 6 | G: 8

Structure: O=C(CCc1ccccc1)Nc1ccc(NC(=O)C2CCCCC2)nc1
  A: 2473 | B: -7 | C: 21 | D: 0 | E: -9.0 | F: 0 | G: -1

Structure: COc1ccc(NC(=O)CSCC(=O)N(C)Cc2c(F)cccc2Cl)cc1
  A: 4821 | B: -32 | C: -2 | D: -1 | E: -1.5 | F: -9 | G: 3

Structure: CC(C)OCCCNC(=O)c1ccc2c(c1)ncn2C1CCCC1
  A: 4356 | B: -8 | C: 12 | D: -2 | E: 1.4 | F: 9 | G: 5

Structure: CCSCc1nnc(SCC(=O)Nc2nccs2)n1CC
  A: 4042 | B: -16 | C: 4 | D: -11 | E: 4.1 | F: -7 | G: -7

Structure: Cc1cc(C)nc(NC(=O)c2ccc(OC(C)C)cc2)n1
  A: 2521 | B: -2 | C: 12 | D: -7 | E: 5.9 | F: . | G: .

Source: PubChem BioAssay (several laboratories)
